# Compound activity (PubChem)
# BJeLR lethal = BJeLR cell viability loss; inhibition, % (concentration not given with the values); actives 0.17% (n = 300,000); BJeLR (HRASV12) viability, CellTiter-Glo ATP luminescence, 48 h; reference of the scale not given here;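 active = replicate mean above 50%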;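 also: 50 nL library stock added to about 25 µL; numbers are from one replicate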
# PrP 5UTR inh = inhibition of PrP 5' UTR reporter expression; cell-based PrP 5' UTR mRNA reporter, plate reader; inhibition, % (no concentration beside the values); actives 0.35% (n = 340,000);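 active = every replicate at 50% or more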;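 also: 0 = median of the neutral control wells; tested in H4 reporter cells; numbers are from one replicate; inactives centre near -14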
# An asterisk follows results filed as active; / = not tested or not shown. Some of the compounds tested; rates above refer to the full screens.
# Every second line gives: BJeLR lethal | PrP 5UTR inh
- N/C(=N\[N+](=O)[O-])N1CCN(C(=O)c2ccccc2)CC1
→ -5.7 | /
- CS(=O)(=O)C1=NSC2=NC(=O)/C(=C\c3ccc(OC(=O)c4ccco4)cc3)C(=N)N21
→ -1.9 | /
- N#CC1=C(Nc2ccccc2)SC=C(c2ccc(F)cc2)N=C1N1CCOCC1
→ -5.8 | /
- Cc1ccc(-n2c(/C=C/c3ccc4c(c3)OCO4)nc3ccccc3c2=O)cc1
→ -3.2 | /
- C/C(=N\Nc1ccc(C(=O)O)cc1)c1nc2ccccc2n1C
→ -6.6 | /
- COc1cc(/C=C2\C(=N)N3N=C(S(=O)(=O)CC(C)C)SC3=NC2=O)ccc1OC(=O)c1ccco1
→ -1.5 | /
- O=C1C2C3C=CC(CO)(O3)C2C(=O)N1c1ccc(-c2ccccc2)cc1 (stereo unspecified)
→ -14.9 | /
- CCc1ccc(NC(=O)Cc2ccc(OC)cc2)cc1
→ -8.2 | /
- Cc1cccc(N/N=C(\C=N\N)C(=O)c2ccc(Br)cc2)c1
→ -9.5 | /
- CCCCn1c(NC(=O)c2ccc(F)cc2)c(C#N)c2nc3ccccc3nc21
→ -2.6 | /
- COc1ccc(O)c(N)c1
→ / | -11.3
- C#CCOCCOCCOCCNc1nc(N2CCN(C(=O)[C@H](Cc3cc4ccccc4[nH]3)n3cc([C@@H](N)Cc4ccc(O)cc4)nn3)CC2)nc(N2CCN(C(=O)[C@H](Cc3cc4ccccc4[nH]3)n3cc([C@@H](N)CC(C)C)nn3)CC2)n1
→ / | -1.5
- CN1CCN(C2Cc3ccc(F)cc3Sc3cc(F)c(Cl)cc32)CC1 (stereo unspecified)
→ 0.1 | -7.8
- CC(=C/c1ccc(C(C)C)cc1)/C=N/NC(=O)Cn1nnnc1N
→ 7.2 | -29.4
- O=C1Nc2ccccc2/C1=N\N1CCOCC1
→ 5.1 | -19.5
- CCCOc1ccc(CCC(=O)N/N=C/c2ccncc2)cc1
→ 2.4 | 11.6
- Cc1ccc(C(C[N+](=O)[O-])c2c(N)n(C)c(=O)n(C)c2=O)cc1 (stereo unspecified)
→ -1.4 | 4.8
- COc1cc(/C=N/NC(=O)c2ccc3c(c2)OCCO3)c(Br)c(Br)c1O
→ -5.0 | -21.6
- CC(C)Cn1c(=O)c2ccccc2n2c(CCC(=O)NC3CCN(Cc4ccccc4)CC3)nnc12
→ 1.2 | -10.1
- CSCC[C@H](NC(=O)OC(C)(C)C)C(=O)N/N=C/c1cccc2nccnc12
→ 9.2 | -10.9

# (next part)
# Every second line gives: BJeLR lethal | PrP 5UTR inh
- N#CCC(=O)N/N=C/c1cn(Cc2cccc3ccccc23)c2ccccc12
→ 5.7 | -29.7
- CCCc1cc2c(c(NC(C)=O)n1)c(=O)oc1ccccc12
→ -10.7 | -8.6
- COC(=O)CNC(c1ccccc1)c1cc(Br)ccc1N (stereo unspecified)
→ 0.7 | -10.5
- C/C(=N\Nc1ccc(Cl)c(C(=O)O)c1)c1ccc[nH]1
→ -5.1 | 14.0
- Nc1c(C(=O)c2cccs2)sc2nsc(SCCN3CCCCC3)c12
→ -3.0 | -51.4
- COc1ccc2ccccc2c1/C=N/n1cnnc1
→ -1.9 | 12.7
- O=C(Nc1ccc(OC(F)(F)F)cc1)N1CCN(c2ccnc3cc(Cl)ccc23)CC1
→ -2.8 | -24.8
- COc1ccc(/C=N/Nc2nc(C)cc(-c3ccccc3)n2)c(OC)c1
→ -9.5 | -9.9
- Cc1nc(N2CCOCC2)nc(N2CCCCC2C)c1[N+](=O)[O-] (stereo unspecified)
→ 4.3 | -25.7
- CC(=O)CSc1nc2c(c(=O)[nH]c(=O)n2C)n1Cc1ccccc1Cl
→ 1.6 | -13.0
- Cc1ccc(/C=N/NC(=O)c2ccc3nc[nH]c3c2)o1
→ 1.5 | -54.1
- O=c1c2ccccc2nc(/C=C/c2cccnc2)n1CCc1ccccc1
→ -5.3 | -18.6
- Clc1ccc(-c2c[n+](Cc3ccc(Cl)cc3Cl)c3n2CCCCC3)cc1
→ 12.4 | -4.6
- COc1ccc(Nc2nc(-c3sc(C)nc3C)cs2)c(OC)c1
→ 39.1 | -15.8
- COC(=O)c1sc(-c2ccc(C(C)(C)C)cc2)cc1NC(=O)/C=C/C(=O)O
→ 8.3 | 1.8
- Cc1nnc(N/N=C/C(C)c2ccccc2)[nH]c1=O (stereo unspecified)
→ -8.5 | -14.4
- COCCCn1c(N)c(C(=O)NCc2ccco2)c2nc3ccccc3nc21
→ 0.8 | -31.4
- COC(=O)c1cc(NC(=O)c2cc(-c3ccc(OC)cc3)oc2C(F)(F)F)ccc1N1CCOCC1
→ 5.7 | -20.1
- Cc1onc(-c2ccccc2Cl)c1C(=O)c1ccccc1
→ -1.0 | -6.6
- O=C(Nc1ccc2c(c1)OCCO2)c1ccc(Br)cc1
→ 0.8 | -35.2

# Random excerpt: 4 records from the list.
# Every second line gives: BJeLR lethal | PrP 5UTR inh
- Nc1c(C(=O)c2cccs2)sc2nsc(SCCN3CCCCC3)c12
→ -3.0 | -51.4
- CC(=O)CSc1nc2c(c(=O)[nH]c(=O)n2C)n1Cc1ccccc1Cl
→ 1.6 | -13.0
- COc1ccc2ccccc2c1/C=N/n1cnnc1
→ -1.9 | 12.7
- C/C(=N\Nc1ccc(Cl)c(C(=O)O)c1)c1ccc[nH]1
→ -5.1 | 14.0

# (cont.)
# Every second line gives: BJeLR lethal | PrP 5UTR inh
- CC(C)(C)OC(=O)CNC(=O)c1[nH]cnc1C(=O)NC1CCN(C(=O)OC(C)(C)C)CC1
→ 7.7 | -9.4
- Cc1cc(C)n2c(SC/C(O)=C(\C#N)c3nc4ccccc4[nH]3)nnc2n1
→ 1.2 | -6.5
- COc1ccc(NC(=O)CCN2C(=O)c3cccc([N+](=O)[O-])c3C2=O)cc1
→ -2.9 | 19.8
- Cc1cccc(N2C(=O)c3ccc(Br)cc3C2=O)n1
→ -3.4 | -13.0
- N#Cc1c(-c2ccccc2Cl)c2c([nH]c1=O)-c1ccccc1OC2
→ -8.1 | -18.0
- COc1ccc(S(=O)(=O)NCc2ccccc2)cc1Br
→ -9.5 | -20.6
- C/C(=N\NC(=O)Cc1ccccc1)c1cccnc1
→ 3.2 | -7.4
- Cc1ccnc(Nc2nc(-c3ccc(O)c(O)c3)cs2)c1
→ -0.4 | -59.3
- Cc1ccc(/C=N/n2c(-c3cccnc3)n[nH]c2=S)o1
→ 1.3 | -1.8
- COc1ccccc1/C=C/c1nc2ccccc2c(=O)o1
→ -11.7 | -48.8
- COc1ccc(-n2nc3c(c2NC(=O)CCl)CSC3)cc1
→ 16.0 | -31.7
- O=C(O)CC/C(=N/NC(=O)CNC(=O)Cc1ccc(Cl)cc1)c1ccccc1
→ 3.6 | -29.8
- N/C(=N\OC(=O)c1csnn1)c1ccc(C(F)(F)F)cc1
→ -1.5 | -49.2
- N#CCC(=O)N/N=C/c1cn(Cc2ccccc2C#N)c2ccccc12
→ -8.2 | -10.8
- COc1ccc(OC(=O)COc2cc(C)ccc2C)cc1
→ 2.6 | -6.2
- Cc1cc(C)cc(Oc2nc3ccccn3c(=O)c2/C=C(\C#N)C(=O)NC2CCS(=O)(=O)C2)c1 (stereo unspecified)
→ -4.2 | -82.4
- CN(C)c1ccc(/C=C2/C(=N\O)C3CCN2CC3)cc1
→ -3.1 | -57.7
- Clc1ccc(CSc2nncn2-c2ccc3c(c2)OCCO3)cc1
→ 5.3 | -23.6
- Cc1ccc2nc(NC3=NC(CC(=O)O)C(=O)N3)nc(C)c2c1 (stereo unspecified)
→ -4.4 | -2.9
- Cc1ccc(NS(=O)(=O)c2ccc3c(c2)oc(=O)n3C)c(C)c1
→ 3.9 | 12.0

# Next part:
mol	BJeLR lethal	PrP 5UTR inh
CC(=O)c1cccc(NC(=O)c2ccc3c(c2)CCCC3)c1	3.3	-63.4
COc1cc(NC(=O)c2cccs2)c(OC)cc1NC(=O)Nc1ccc(F)cc1	-0.3	3.1
NC(=O)N/N=C/c1cc(F)cc(F)c1	-7.1	11.3
COc1ccc(NC(=O)c2sc3nc(-c4cccnc4)ccc3c2N)cc1	-0.6	-3.2
Clc1ccc(/C=N/N2CCN(Cc3ccccc3)CC2)cc1	-2.1	-26.0
COCCCNc1nc(N)c([N+](=O)[O-])c(Nc2cc(OC)ccc2OC)n1	-3.5	15.3
COc1ccc(C(=O)Nc2ccccc2C(=O)N/N=C/c2ccncc2)cc1OC	19.5	-48.4
O/N=C1/CCCCc2sccc21	7.9	-15.0
COc1cccc(N2C(=O)NC(=O)/C(=C/c3ccc([N+](=O)[O-])s3)C2=O)c1	22.6	-18.4
Cc1cc[n+](-c2[nH]c(=O)sc2/C=N/N=C(\[O-])c2ccccc2)cc1	3.3	-34.3
CC1(C)c2cc(Cl)ccc2-n2c1cc(O)c(-c1ccccc1)c2=O	-5.3	-9.6
CC(C(=O)N1CCCC1)N(c1ccccc1)S(C)(=O)=O (stereo unspecified)	-16.7	-12.1
C[C@@H](NC(=O)OC(C)(C)C)c1nnc(S(=O)(=O)Cc2ccccc2)o1	-3.9	3.1
CCOc1cc(/C=N/NC(=O)c2ccncc2)ccc1OC(=O)c1ccccc1	2.0	6.9
O=C1CCCC2=C1Sc1ccccc1N2	6.9	-14.3

# (continued)
mol	BJeLR lethal	PrP 5UTR inh
Clc1ccccc1/C=C/c1nc(-c2ccccn2)no1	20.1	55.4*
Cn1c(=O)[nH]c(=O)c2c1nc(N/N=C/C(Br)=C/c1ccccc1)n2CCO	-0.9	-19.9
Cc1nn(-c2ccccc2)c(Cl)c1/C=N/NC(N)=O	-3.2	-4.2
CC1(C(=O)c2ccccc2)C2c3c(ccc4ccccc34)OC(=O)C21C(=O)N1CCOCC1 (stereo unspecified)	-4.9	-1.1
CCSS(=O)(=O)c1cccc2cccnc12	-8.1	-19.9
CN1C(=S)SC2CS(=O)(=O)CC21C (stereo unspecified)	-9.7	-2.6
Cc1cc(C)nc(N/N=C/c2ccc(Cl)cc2)n1	-2.7	-5.9
COC(=O)N/N=C/c1cccc(OC(=O)c2ccc3c(c2)OCO3)c1	-7.8	-19.9
Cc1[nH]n(-c2ccc(Br)cc2)c(=O)c1/C=N/NC(=O)c1ccccc1	30.7	12.9
O=C(N/N=C/c1ccc2c(c1)OCO2)/C(=C/c1ccc2c(c1)OCO2)NC(=O)c1ccccc1	-2.5	-39.1
O=C(C/C=N/OCc1ccc(Cl)cc1Cl)c1ccccc1	-5.2	-31.8
O=C(/C=C/c1ccc(F)cc1)N1CC[C@@]2(O)CCCC[C@H]2C1	-4.9	-6.8
CC(C)(C)c1ccc(OCC(=O)N/N=C/c2cc(Br)ccc2OC(=O)c2ccco2)cc1	2.9	7.8
Clc1ccc2c(c1)CCc1cccnc1C2=C1CCNCC1	2.5	0.3
O=C(Nc1c(S(=O)(=O)c2ccc(Cl)cc2)csc1Br)c1ccccc1Cl	17.2	5.8

# Other entries
mol	BJeLR lethal	PrP 5UTR inh
Cc1[nH]nc2c1C(c1c[nH]c3ccccc13)C(C#N)=C(N)O2 (stereo unspecified)	-16.4	-27.1
C/C(Cn1nc([N+](=O)[O-])cc1C)=N\NC(=O)c1ccc(C(C)(C)C)cc1	-5.6	-13.2
COc1ccc(/C=N/NC(=O)c2ccc3nc[nH]c3c2)c(OC)c1OC	8.2	-7.1
COc1cccc2sc(/N=C/N(C)C)nc12	10.7	-28.7
O=C1N/C(=N\N=C\c2cccnc2)SC1Cc1ccc(SC(F)F)cc1 (stereo unspecified)	-11.9	-11.6
Cn1c(=O)c([N+](=O)[O-])c(NCc2ccc3c(c2)OCO3)c2ccccc21	3.8	1.0
Cc1ccccc1NC(C)C(=O)N/N=C/c1ccccc1OCc1cccc(Br)c1 (stereo unspecified)	-4.8	-11.2
O=C(N/N=C/c1cccnc1)NC12CC3CC(CC(C3)C1)C2	-1.5	-9.9
CCN1C(=NCc2ccc(OC)cc2)N[C@@H](CCc2ccccc2)[C@H](C(=O)NCc2ccc(OC)cc2)[C@H]1C	2.2	-20.9
CCCOc1ccc(/C=N/O)cc1	-4.4	2.1
Cc1ccc(Cl)cc1NC(=S)N/N=C/c1cccc2ccccc12	24.7	30.7
CCC1=Nc2cc(C(=O)N3CCC4(CC3)OCCO4)ccc2Sc2ccc(Br)cc21	13.0	-30.0
C/C(=N/NC(=O)CN1CCN(Cc2ccccc2)CC1)c1ccc([N+](=O)[O-])cc1	5.6	-7.8
CCOc1ccc(/C=N/NC(=S)NC2CC3CC2C2C=CCC32)cc1 (stereo unspecified)	-9.8	-13.2
C#CCOCCOCCOCCNc1nc(N2CCN(C(=O)[C@H]([C@@H](C)CC)n3cc([C@@H](N)CC(C)C)nn3)CC2)nc(N2CCN(C(=O)[C@H](CCCCN)n3cc([C@@H](N)CC(C)C)nn3)CC2)n1	-0.1	-18.9

# More entries:
mol	BJeLR lethal	PrP 5UTR inh
O=C(N/N=C/c1cccn1-c1ccc([N+](=O)[O-])cc1)c1cccnc1	-3.7	-25.5
O=C1c2ccccc2-c2onc3c(N4CCN(CCO)CC4)cc(N4CCN(C(=O)c5ccco5)CC4)c1c23	15.1	3.8
COC(=O)c1ccc(/C=N/Nc2nc(C)c(C)s2)cc1	-1.9	-93.7
C=CCOc1ccc(/C=N/NC(=O)c2c(C)nc3ccc(Cl)cn23)cc1	6.9	-16.5
CNC(=S)Nc1ccc(N2CCN(c3ccc(C(F)(F)F)cn3)CC2)nc1	3.5	9.8
CN(C)c1ccc(/C=C2\C(=O)NC(=O)N(Cc3ccc(F)cc3)C2=O)cc1	-3.4	-17.5
O=C(/C=C\c1ccccc1)NCC(=O)N/N=C/c1ccc(O)cc1O	10.1	-11.6
O=C(Nc1ccc(Cl)cc1)N1CCCN(c2ccc(C(F)(F)F)cc2[N+](=O)[O-])CC1	4.4	-9.2
C/C(=N\Nc1cc(N2CCCCC2)nc(C)n1)c1ccc(Br)cc1	-1.5	-20.8
Cc1ccc2ccc3cccnc3c2n1	-21.3	-22.1
C/C(=N\Nc1cc(C)nc(NCc2ccccc2)n1)c1ccc([N+](=O)[O-])cc1	-3.6	-13.1
Cc1nn(-c2ccccc2)c2nc(N)c(C#N)c(-c3ccc(C(C)(C)C)cc3)c12	5.2	-18.5
COc1cccc(/C=N/NC(=O)CNC(=O)COc2ccccc2)c1O	16.1	-2.4
COc1cc(/C=N/N(c2ccccc2)c2ccccc2)ccc1O	-19.9	-38.3
